Hsc70 ATP site = small molecules displacing fluorescent ligand from Hsc70 – biochemical, fluorescence polarization, primary screen (AID 568); Hsc70 fluorescence polarization, probe displacement; higher % means a stronger effect; strong numbers were not always called active; displacement, % at 20 µM; hits with a dose series show IC50 in µM; 83,000 tested, under 10 active;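 active means displacement above 50% without optical interference and an IC50 on retest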;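 further: ATPase domain with a fluorescein-tagged ATP probe; 0% = vehicle and 100% = excess ADP; read after one hour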
WNV protease inh = inhibitors of West Nile virus NS2B-NS3 protease. P06935. WNV NS2B-NS3 protease, fluorogenic substrate Ex360/Em465; active compounds read low. z-score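 (tested at a level between 10 and 100 µM)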. 65,000 compounds, 0.18% hits;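 active means z-score at -3 or under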;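 further: score is relative to mean and spread of the compound wells of a plate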
Target sequence (P06935 1371-1501 limits assumed): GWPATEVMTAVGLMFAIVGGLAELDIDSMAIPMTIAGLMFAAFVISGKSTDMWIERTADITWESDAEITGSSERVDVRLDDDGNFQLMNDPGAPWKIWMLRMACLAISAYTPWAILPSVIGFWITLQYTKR
Target sequence (P06935 1502-1679 limits assumed): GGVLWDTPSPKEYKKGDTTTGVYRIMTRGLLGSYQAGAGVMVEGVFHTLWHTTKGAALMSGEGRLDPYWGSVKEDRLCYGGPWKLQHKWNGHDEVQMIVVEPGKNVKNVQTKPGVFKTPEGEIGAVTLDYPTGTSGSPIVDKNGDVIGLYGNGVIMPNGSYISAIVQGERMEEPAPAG
MT1-MMP reporter = inhibitors of MT1-MMP promoter transcription, cell-based, luciferase reporter, luminescence (AID 618). 87,000 compounds, 0.62% hits. MT1-MMP promoter luciferase reporter cells, luminescence. calls from a first round at 10 µM; hits with a dose series show EC50 in µM;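 active means over half of the reporter light lost at 10 µM or EC50 under 50 µM; inactive means the rest and hits that failed the dose series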;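 further: actives suppress MT1-MMP promoter-driven transcription so potencies describe inhibitors; HT1080 fibrosarcoma cells; overnight exposure; toxic or luciferase-blocking compounds were not removed from the actives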
Numbers without * were called inactive; i = inactive; / = not tested or not shown.

molecule,Hsc70 ATP site,WNV protease inh,MT1-MMP reporter
CC(C)(C)n1nnnc1C(c1ccncc1)N1CCCCCC1 (centres undefined),-1.4%,0.03,i
COc1ccc(C)cc1-n1c(-c2ccncc2)n[nH]c1=S,5.6%,0.41,i
CCOc1ccc(S(=O)(=O)Nc2ccccc2SC)cc1,-1.7%,/,i
Cn1nnnc1SCc1nc2ccccc2s1,-4.0%,-1.5,i
CS(=O)(=O)N(CC(=O)Nc1ccccc1C(=O)NCCc1ccccc1)c1ccc2c(c1)OCCO2,2.6%,/,i
Cc1nnc(SCC(=O)N(C)Cc2ccccc2)[nH]c1=O,6.8%,-0.55,i
CCOC(=O)c1nnn(CC(=O)N2N=C(c3ccccc3)CC2c2ccccc2)c1C(=O)OCC (centres undefined),-5.0%,/,i
O=C(O)CCc1ccc(S(=O)(=O)NCCc2ccccc2)cc1,-1.7%,/,i
COc1cc(OC)cc(C(=O)NCC2CCCO2)c1 (centres undefined),6.6%,-0.69,i
CCCn1nnc(NC(=O)c2cccnc2Cl)n1,-2.6%,/,i
O=C(NCCCN1CCOCC1)c1cccs1,1.1%,-0.52,i
Clc1ccccc1Cn1nnc2c(N3CCOCC3)nc(C3CC3)nc21,-4.8%,/,i
Cc1cc(C)n(C(=O)COc2ccccc2C)n1,3.0%,/,i
COc1ccc2c(c1)C(=O)N(c1ccccc1OC)C(=O)C2,0.2%,0.03,i
COC(=O)COc1ccc(S(=O)(=O)Nc2ccc(NC(C)=O)cc2)cc1,4.9%,-0.63,i
COc1ccc(C2NC(C(=O)O)Cc3c2[nH]c2ccccc32)cc1OC (centres undefined),-3.5%,/,i
Cn1c(NC(=O)c2ccccc2Br)cc(=O)n(C)c1=O,3.2%,-0.91,i
COc1ccc(C2/C(=C(/O)c3ccccc3)C(=O)C(=O)N2C)cc1 (centres undefined),-4.1%,-0.19,i
CC(=O)Nc1ccc(S(=O)(=O)Nc2c(C)n(C)n(-c3ccccc3)c2=O)cc1,2.8%,1.5,i
COc1cccc(C(=O)Cn2c(N3CCCCC3)nc3c2c(=O)n(C)c(=O)n3C)c1,0.9%,0.61,i
COc1ccc(-n2c(SCC(=O)Nc3nccs3)nc3c(c2=O)SCC3)cc1,1.4%,0.82,i
COc1ccc(N2C(=O)CCC(C(=O)N(C)C3CCCCC3)C2c2ccc(OC)c(OC)c2)cc1 (centres undefined),-1.0%,2.3,i
CC(C)OC(=O)CSc1nnc(-c2cnccn2)n1-c1ccccc1,4.8%,-0.25,i
CN(C)CCCOC(=O)Cc1ccc(Cl)cc1,-2.1%,0.33,i
Cc1ccc2oc(=O)c3cnn(CC(=O)Nc4ccccc4N4CCN(C)CC4)c3c2c1,0.7%,1.4,i
CC(C)(C)NC(=O)C(c1ccccc1F)N(Cc1ccco1)C(=O)c1csnn1 (centres undefined),4.6%,-0.31,i
Cc1nc2c(c(-c3ccccc3)c1C#N)C(=O)c1ccccc1-2,-2.2%,/,i
COCCCn1c2nc3ccccc3nc2c2c(=O)n(-c3ccccc3OC)c(C)nc21,16%,-1.2,i
CCOC(=O)C1=C(C)NC(SCC(=O)OC)=C(C#N)C1c1ccc(C(=O)OC)cc1 (centres undefined),-2.6%,-0.07,i
Cc1ccc(-n2nnnc2SC(C)C(N)=O)c(C)c1 (centres undefined),-0.9%,0.64,i
COc1cc2cc(C(c3nnnn3C(C)(C)C)N3CCC(C)CC3)c(=O)[nH]c2cc1OC (centres undefined),1.8%,/,i
O=C(Nc1cc(C(F)(F)F)ccc1N1CCOCC1)c1ccco1,1.0%,2,i
Nc1nc(N)c2sc3nc4c(cc3c2n1)CCC4,-6.8%,-0.5,i
COc1cc(C2=NOC(C(=O)Nc3ccc(C(C)=O)cc3)C2)cc(OC)c1OC (centres undefined),-2.8%,-0.0048,i
Cc1ccccc1OCC(=O)Nc1ccccc1N1CCCCC1,5.8%,1.3,i
O=C(NCCCN1CCOCC1)c1ccccc1,7.3%,/,i
Oc1c(CN2CCCCC2)cc(COCc2ccccc2)c2cccnc12,-4.0%,0.45,6.9µM*
N#CCSc1nnc(CNc2ccc(F)cc2)o1,-1.2%,/,i
O=C1COc2ccc(C(=O)COC(=O)Cn3cnc4ccccc43)cc2N1,0.0%,0.67,i
O=C(NCc1ccccc1)Oc1cccc(Cl)c1,-0.8%,/,i
Cc1coc(NC(=O)CSc2nc(-c3ccc(Cl)cc3)cc(C(F)(F)F)c2C#N)n1,-22%,/,i
O=S(=O)(c1ccc(Cl)c(F)c1)N1CCC(c2nc(-c3ccncc3)no2)CC1,-5.6%,-0.41,i
CCOc1cc(S(=O)(=O)NCCc2ccc(OC)c(OC)c2)c(OCC)cc1-n1cnnn1,1.3%,/,i
CC(=O)c1c(CC(=O)O)[nH]n(-c2nc3ccccc3s2)c1=O,6.4%,/,i
COc1ccc(CN2C(=O)CCC2(C)C(=O)NCc2cccnc2)c(OC)c1 (centres undefined),0.8%,-0.37,i
CC1(C)NC(=O)N(CC(O)COc2cccc(F)c2)C1=O (centres undefined),1.9%,-0.21,i
Cc1nc(NCc2ccccn2)c2ccccc2n1,-0.9%,0.18,i
Cc1cc2ncn(C(=O)N3CCCCC3)c2cc1C,4.6%,1.3,i
Cc1ccc(NC2=NCC(=O)N2C2CCCC2)c(C)c1,-2.5%,/,i
Clc1ccc(C(c2nnnn2CCc2ccccc2)N2CCSCC2)cc1 (centres undefined),-1.4%,/,i
CC1CCN(C(=O)CN(c2ccc3c(c2)OCO3)S(C)(=O)=O)CC1,5.9%,-0.74,i
O=C1c2cccc3c(N4CCCCC4)ccc(c23)C(=O)N1c1ccc(Cl)cn1,65%,/,i
CC(=O)Nc1ccc(S(=O)(=O)NCCc2cc3c(C)ccc(C)c3[nH]c2=O)cc1,1.8%,-0.8,i
CCOC(=O)N1CCN(C2=CC(=O)OC23CCCCC3)CC1,-2.9%,-5.2*,i
COc1ccc(C2NC(=O)NC3=C2CCc2ccccc23)cc1 (centres undefined),-4.2%,-0.29,i
O=C(CCCC(=O)N1CCN(c2ccccc2F)CC1)N1CCN(c2ccccc2F)CC1,2.8%,-2.1,i
Cc1cccc(C)c1NS(=O)(=O)c1c(C)[nH]c(=O)[nH]c1=O,-7.2%,0.31,i
COCCCNC(=O)CS(=O)Cc1nc(-c2cccc(OC)c2)oc1C (centres undefined),2.6%,-0.33,i
CCc1c(C(=O)Nc2ccc(OC)c(Cl)c2)[nH]c(C)c1C(C)=O,-7.2%,-0.63,i
Nc1nc2sc3c(c2c(=O)s1)CCCC3,-5.6%,-0.28,i

The results go on:
Compound | Hsc70 ATP site | WNV protease inh | MT1-MMP reporter
Cc1ccc(C(CC(N)=O)c2ccco2)cc1 (centres undefined) | -1.8% | / | i
N#Cc1ccc(CN2CCN(C(=O)c3ccccc3)CC2)c(Cl)c1 | -1.3% | 0.2 | i
CCOC(=O)Cc1csc(NC(=O)c2c(-c3c(F)cccc3Cl)noc2C)n1 | -21% | 1.6 | i
COc1ccc(NCc2n[nH]c(=O)c3ccccc23)cc1 | 3.1% | / | i
O=C(Cn1cc([N+](=O)[O-])cn1)N1N=C(C(F)F)CC1(O)C(F)F (centres undefined) | 6.3% | / | i
COc1ccc(-n2nnnc2S(=O)(=O)Cc2ccc(C(=O)O)cc2)cc1 | 0.4% | -0.42 | i
COc1cc(NC(=O)C2CCCO2)c(OC)cc1Cl (centres undefined) | -1.5% | / | i
Cc1c(C2(O)C(=O)Nc3ccc(F)cc32)c(=O)n(-c2ccccc2)n1C (centres undefined) | 0.3% | -0.74 | i
Cc1nnc(SCc2ccccc2)n1CC1CCCO1 (centres undefined) | -5.1% | / | i
CCCCCOC(=O)Cn1c(N2CCCCCC2)nc2c1c(=O)[nH]c(=O)n2C | -7.7% | 0.6 | i
COc1cc(C2C3C(C)N(C)C(=O)N(C)C3N(C)C(=O)N2C)ccc1O (centres undefined) | -5.9% | 0.5 | i
CCC(C)NC(=O)c1ccccc1NC(=O)Nc1ccccc1 (centres undefined) | -1.1% | / | i
OCCn1c(CSc2nc3ccccc3n2CCO)nc2ccccc21 | -4.9% | 0.37 | i
O=C(N1CCOCC1)N1CCCC(c2nc(-c3cccs3)no2)C1 (centres undefined) | -3.1% | -0.8 | i
Cc1cccc(C)c1NC(=O)C1(N2CCN(C(=O)c3ccco3)CC2)CCCCC1 | 4.1% | -0.53 | i
O=C(CCC1COc2ccccc2O1)Nc1ccccn1 (centres undefined) | -0.3% | 0.24 | i

Rewritten field by field: entries from further up.
Cc1ccc2oc(=O)c3cnn(CC(=O)Nc4ccccc4N4CCN(C)CC4)c3c2c1
  Hsc70 ATP site: 0.7%; WNV protease inh: 1.4; MT1-MMP reporter: i
COc1cc(C2C3C(C)N(C)C(=O)N(C)C3N(C)C(=O)N2C)ccc1O (centres undefined)
  Hsc70 ATP site: -5.9%; WNV protease inh: 0.5; MT1-MMP reporter: i

(list continues)
Compound | Hsc70 ATP site | WNV protease inh | MT1-MMP reporter
COc1cc(Cl)c(C)cc1NC(=O)CSc1nnc(-c2cccnc2)n1Cc1ccco1 | -6.7% | -0.31 | i
COc1ccc(CCN2C(=O)c3cccnc3C2=O)cc1OC | -2.1% | -0.65 | i
CCOC(=O)C1CCN(C(=O)CCn2c(=O)[nH]c3ccccc3c2=O)CC1 | -2.8% | 0.49 | i
CCN(CC)Cc1nc2c(c(=O)[nH]1)C1(CCCCC1)Cc1ccccc1-2 | -3.7% | -0.9 | i
Cn1c2c(c(=O)n(C)c1=O)CN(CCc1ccccc1)CN2 | -0.4% | / | i
COC(=O)c1c(NC(C)=O)sc2c1CCCC2 | -4.5% | -0.88 | i
COc1cccc(C(=O)OCCN2C(=O)c3ccccc3C2=O)c1OC | 0.4% | 1 | i
O=C(c1cccs1)N1CCN(C2CCCCC2)CC1 | 2.1% | -0.77 | i
COc1ccc(N2CCN(CC(=O)Nc3nnc(-c4ccccc4)s3)CC2)cc1 | -3.8% | 0.42 | i
Cc1cc(C)c(NC(=O)OCCN2CCOCC2)c(C)c1 | -6.5% | 0.08 | i
COC(=O)c1cc2oc(C)cc2n1CC(=O)Nc1ccc(OC)c(OC)c1OC | 7.8% | 1.5 | i
COc1ccc(-c2cn[nH]c2N)cc1OC | -2.4% | / | i
Cn1c(SCC(=O)O)nnc1C1CCCCC1 | -3.7% | 0.96 | i
CCCS(=O)(=O)N1CCCC(C(=O)N2CCN(c3ccccc3)CC2)C1 (centres undefined) | 0.9% | 0.81 | i
Cc1cc(NS(=O)(=O)Cc2ccccc2)cc(C)c1OCC(=O)N1CCOCC1 | -2.0% | -0.05 | i
CCc1nc(SCC(=O)Nc2ccccc2C(=O)OC)n[nH]1 | -0.3% | -0.62 | i
CC(=O)Nc1ccc(NC(=O)CSc2nnc(C3CC3)n2C)cc1 | 4.6% | -0.71 | i
COc1cc(C2NC(=S)NC(C)=C2C(=O)OC(C)C)ccc1OC(C)C (centres undefined) | 1.1% | / | i
COc1cc(OC)cc(C(=O)NC2CCN(Cc3nnnn3Cc3cccs3)CC2)c1 | -0.3% | -0.19 | i
Cc1ccc(-n2nc(C)c3c2OC(N)=C(C#N)C3c2ccc(C)o2)cc1 (centres undefined) | -0.6% | / | i
Cc1ccc(CCn2c3c(c4ccccc42)CN(C)CC3)cn1 | 2.0% | 1.9 | i
COc1ccc(-c2cc(=O)oc3c(C)c(O)c(CN(C)C)cc23)cc1 | 17% | 0.14 | i
Clc1ccc2c(N3CCCC3)ccnc2c1 | -1.0% | -1.3 | i
CCC(=O)OCC(=O)c1c(N)n(Cc2ccccc2)c(=O)n(C)c1=O | -0.5% | -1.7 | i
O=C(c1ccc2c(c1)C(=O)N(c1ccc(Cl)cc1)C2=O)N1CCN(c2ccccn2)CC1 | -1.2% | -0.39 | i
Cc1nnc(NC(=O)c2oc3cc(C)c(C)cc3c2C)s1 | -0.5% | 0.7 | i
O=C(CN1C(=O)CCC1=O)Nc1nc(-c2nc3ccccc3s2)cs1 | 3.2% | -1.3 | i
CC(C)=C1SC(N2CCN(Cc3ccccc3)CC2)=NC1=O | -2.4% | 1.9 | i
Cc1ccc(-n2nc3ccc(N)cc3n2)cc1 | -9.2% | 2.1 | 14µM*
O=C(NC1CCS(=O)(=O)C1)c1cnccn1 (centres undefined) | -1.1% | -0.85 | i
CCOC(=O)c1cnc(SC2CC(=O)N(c3cccc(OC)c3)C2=O)nc1N (centres undefined) | 2.6% | -0.11 | i
Cc1ccc(-c2nc3ccccn3c2NC(=O)c2ccco2)cc1 | -0.6% | / | i
c1coc(-c2nc3c4c5c(sc4ncn3n2)CCCC5)c1 | -2.6% | 0.14 | i
N#C/C=C\Oc1ccc(Cl)cc1N | 0.5% | 1.5 | i

Results in MT1-MMP reporter and WNV protease inh (6 entries from above):
| compound | MT1-MMP reporter | WNV protease inh |
| --- | --- | --- |
| Cc1ccc(-n2nc(C)c3c2OC(N)=C(C#N)C3c2ccc(C)o2)cc1 (centres undefined) | i | / |
| Clc1ccc2c(N3CCCC3)ccnc2c1 | i | -1.3 |
| CCOc1ccc(S(=O)(=O)Nc2ccccc2SC)cc1 | i | / |
| COc1cc(NC(=O)C2CCCO2)c(OC)cc1Cl (centres undefined) | i | / |
| COc1ccc2c(c1)C(=O)N(c1ccccc1OC)C(=O)C2 | i | 0.03 |
| CN(C)CCCOC(=O)Cc1ccc(Cl)cc1 | i | 0.33 |

Compound activity deposited in PubChem by several laboratories.
